HPGD block = inhibitors of human 15-hydroxyprostaglandin dehydrogenase (HPGD). 150,000 tested, 4.3% active. AID 894. purified HPGD, NADH fluorescence kinetic, PGE2 substrate. Potency, µM, for inactives: at the highest dose activity change, negative = inhibition, most hits filed as inhibitors. P15428; active = well fitted inhibition curve with a large enough effect (not every such curve was filed as active); inconclusive = small, poorly fitted or top-dose-only effect, or another doubt; inactive = no such curve, though single readings can be large or run the other way;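 also: top concentration of the series not given in the record; plate controls included wells without enzyme; inactives centre near -10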
Target sequence (P15428 whole entry, looked up): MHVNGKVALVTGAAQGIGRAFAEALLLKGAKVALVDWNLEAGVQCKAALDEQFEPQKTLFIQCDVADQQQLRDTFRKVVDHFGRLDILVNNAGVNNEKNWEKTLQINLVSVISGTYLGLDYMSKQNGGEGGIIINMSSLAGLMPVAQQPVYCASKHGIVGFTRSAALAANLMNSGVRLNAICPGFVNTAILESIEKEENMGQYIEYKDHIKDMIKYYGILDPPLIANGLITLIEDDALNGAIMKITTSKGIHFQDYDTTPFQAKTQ
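20 nM HPGD preincubated 15 min at room temperature with compound in 50 mM Tris-HCl pH 8, 0.01% Tween 20. Started with 1 mM NAD+ and 30 uM prostaglandin E2; NADH fluorescence (360/450 nm) read 5 times over 30-s intervals, last minus first.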
The depositor's hits bear a star; ? = inconclusive. % is scaled to controls: 0 for no effect and ±100 for the full control effect; potency is read from the fitted curve at half-maximal effect. An excerpt; rates above refer to the full screens.

SMILES	HPGD block
COc1cccc(CNc2nc3ccccc3n2CCN2CCCCC2)c1	-2%
Cc1ccc(/C=N/Nc2ccc3c(C(F)(F)F)cc(C(F)(F)F)nc3n2)cc1	-7%
CCCNC(=O)c1c(C)cc(=O)oc1C	-11%
CC1=C(C)/C(=N/OC(=O)c2cccc([N+](=O)[O-])c2)C=CC1=O	-13%
CC(C)CCC(CC(C)O)c1n[nH]c(=S)n1-c1ccccc1 (centres undefined)	-27%
FB(F)F	5%
CCC1CCCCN1C(=O)CSc1nnc(CNC(=O)COc2ccc(Cl)cc2)o1 (centres undefined)	-11%
COc1cc(C2c3c(-c4ccccc4)n[nH]c3C(=O)N2c2ccccc2)ccc1O (centres undefined)	-2%
COc1ccc(NC(=O)Nc2cc3oc4ccccc4c3cc2OC)cc1	?
CC(=O)N1CCC2(CC1)C(C#N)=C(N)OC1=C2C(=O)CC(C)(C)C1	-9%
O=C(Oc1ccc2ccc(=O)oc2c1)c1cccs1	-9%
CC(=O)C1=C(C)NC(SCC(=O)c2ccccc2)=C(C#N)C1CC(C)C (centres undefined)	32µM*
CCCn1c(=O)c2[nH]c(-c3ccc(OCC(=O)NCCN)cc3)nc2n(CCC)c1=O	?
O=C(CN1CCN(c2ccccn2)CC1)NC(=O)NC1CCCCC1	-5%
C[C@]12C=CC(=O)C=C1CC[C@@H]1[C@@H]2[C@@H](O)C[C@@]2(C)[C@H]1CC[C@]2(O)C(=O)COC(=O)CCC(=O)O	-18%
CCOCC(=O)Nc1cc(C(=O)OC)ccc1C(=O)OC	-27%
O=C(O)CCc1nc(-c2cccs2)no1	-15%
O=c1c2ccccc2nc(COc2ccccc2)n1/N=C/c1ccco1	-2%
CS(=O)(=O)N(CC(=O)NCCSC1CCCCC1)c1ccc2c(c1)OCO2	-9%
Cc1ccc(S(=O)(=O)N2CCC(C(=O)N3CCC[C@H]3C(=O)NCc3ccccc3)CC2)cc1	7%
O=C(NCN1C(=O)C2C3C=CC(C3)C2C1=O)OC1CCCCC1 (centres undefined)	-9%
COc1ccccc1C1CC(=O)Oc2cc(C)cc(C)c21 (centres undefined)	-1%
CC(=O)Nc1c(O)nc(SCC(=O)Nc2sc3c(c2C#N)CCCCCC3)[nH]c1=O	?
COc1ccc(CCNC(=O)C/C(C)=N/NC(=O)C2CCCCC2)cc1OC	-6%
Cc1ccc(S(=O)(=O)NCCNC(=O)C2CCCNC2=O)cc1 (centres undefined)	5%
COc1ccc2c(c1)CCc1cc(C(=O)N3CCN(c4ccc(N5CCOCC5)nn4)CC3)sc1-2	?
O=C(NCCOC(=O)c1ccc(Cl)cc1)c1cccnc1	-10%
CN(c1ccccc1)c1ccc(/C=N/NC(=O)CC#N)cc1	?
Cc1cccc(NC(=S)N2CCC(C(=O)c3ccc(F)cc3)CC2)c1C	2%
O=C1CC(N2CCOCC2)C(=O)N1CCN1C(=O)CC(N2CCOCC2)C1=O (centres undefined)	-4%
CC(C)CCn1nnnc1C(C(C)C)N1CCC(C(N)=O)CC1 (centres undefined)	4%
CCOc1ncccc1C(=O)N(C)CC(=O)Nc1ccc(C)cc1	-3%
O=C1c2cccnc2-c2ncccc21	-20%
Cc1ccc(-c2c(C(=O)NCc3ccccc3)oc(=O)c3ccccc23)cc1	-2%
CCOC(=O)CN(C(=O)CN1CCC(n2nnc3cc(C)ccc32)CC1)c1ccccc1	-13%
CCOC(=O)N1CCN(CCC(=O)Nc2ccc(OC)cc2OC)CC1	?
O=C(Nc1ccccc1)c1cccc(N2C(=O)CCC2=O)c1	5%
Cc1ccn2cc(CCNS(=O)(=O)c3ccc4c(c3)CCCC4)nc2c1	-28%
CCN(CC)S(=O)(=O)c1ccc(C(=O)Oc2coc(CSc3nc(C)cc(C)n3)cc2=O)cc1	-9%
O=C(CCc1ccccc1)Nc1nnc(-c2ccc3c(c2)CCCC3)o1	-18%
COc1cccc(Nc2nc(NCCO)c3ccccc3n2)c1	-24%
CCOn1c(=O)c(-c2ccc(OC)cc2)[n+]([O-])c2ccccc21	-8%
CCN1C(C(=O)c2ccccc2)=C(Nc2ccccc2C)c2ccccc2S1(=O)=O	-8%
CN(C(=O)CSCC(=O)O)C1CCCCC1	-10%
NC(=O)c1sc2nc(-c3ccco3)ccc2c1N	?
COc1cc(/C=C/C(=O)NC(C)C)ccc1OCc1ccccc1	?
CCCCn1c(-c2csc3c2CCC(C)C3)n[nH]c1=S (centres undefined)	14µM*
COc1cccc(NC(=S)N/N=C2/CCCCc3ccccc32)c1	-11%
CC(=O)OCCN1C(=O)c2cccnc2C1=O	-21%
CCOC(=O)N/N=C\c1ccc(C)s1	-25%
More entries
SMILES	HPGD block
CC(C)C(NS(=O)(=O)c1ccc2c(c1)oc(=O)n2C)C(=O)N1CCN(C2CCCCC2)CC1 (centres undefined)	-4%
COc1ccc(OCC(=O)Nc2ccccc2OC)cc1	-22%
CCCCn1c(=O)c(CCC(=O)OCC(=O)Nc2cc(Cl)ccc2OC)nc2ccccc21	-9%
C=CCc1c(C)[nH]c2ccc(C)cc2c1=O	-19%
O=C(NCC(=O)N(Cc1cccs1)C(C(=O)NC1CCCCC1)c1ccco1)c1ccco1 (centres undefined)	-4%
CCc1ccc(NC(=O)COC(=O)c2ccc(Cl)c(S(=O)(=O)N3CCCCCC3)c2)cc1	-15%
Cn1c(SCC(=O)Nc2cccc(O)c2)nnc1-c1ccc(S(=O)(=O)N2CCOCC2)cc1	4%
CCOC(=O)C1CCCN(C(=O)CSc2nccn2C)C1 (centres undefined)	-11%
O=C(CSc1nnc(-c2cccnc2)n1Cc1ccccc1)N1CCOCC1	-3%
CCC1(c2ccccc2)NC(=O)N(CC(=O)Nc2cccc(C#N)c2)C1=O (centres undefined)	-15%
CCOc1ccc(NC(=S)c2ccncc2)cc1	?
O=C(Nc1ncnc2sc3c(c12)CCCCC3)c1ccccc1	-5%
Cc1cccc(C(=O)Nc2ccccc2SCC(=O)Nc2ccc(C)c(Cl)c2)c1	?
CSc1ncccc1C(=O)Nc1nc2c(C)cccc2s1	-14%
COC(=O)C1=CN(C(C)C)C=C(C(=O)OC)C1c1cccc(OC)c1	?
O=C(C1=NNCC1c1ccccc1)C1CO1 (centres undefined)	-5%
N#CCCCN1C(=O)C(O)(CC(=O)c2ccc3c(c2)OCCO3)c2ccccc21 (centres undefined)	-6%
N#Cc1cc([N+](=O)[O-])cnc1NCC(O)CO (centres undefined)	-10%
CN(C)CCn1c(CO)nc2c1c(=O)n(C)c(=O)n2C	-10%
Cc1[nH]c(=O)c(C(=O)/C=C/c2ccccc2F)c2c1CCCC2	-18%
CCOC(=O)c1c(C)[nH]c(C)c1C(=O)COC(=O)c1ccc(Cl)c(S(N)(=O)=O)c1	-12%
CC1=C(C(=O)OCC2CCCO2)C(c2ccccc2Cl)NC(=O)N1 (centres undefined)	-4%
O=C(CNC(=S)N(Cc1ccccc1)Cc1cccnc1)NC1CCCCC1	-4%
Cc1nn2c(-c3ccccc3)nnc2c2ccccc12	-16%
CCOC(=O)CSc1nnc(CSc2nc3sc4c(c3c(=O)[nH]2)CCC4)n1C	8.9µM*
CC(C)CCN1CC(C(=O)NC(C)C)CC1=O (centres undefined)	-3%
COc1cc2c(cc1NCc1ccc3c(c1)OCO3)oc1ccccc12	?
CCCS(=O)(=O)N1CCCC(C(=O)NCc2ccco2)C1 (centres undefined)	-15%
CCn1c(=S)[nH]c2nc3c(cc2c1=O)CCCC3	-6%
Cc1noc(C)c1CSc1ncnc2sc3c(c12)CCCCC3	?
CC(C)(C)N1NC(=O)Nc2ccccc2C1=O	-8%
O=C(Nc1nccs1)c1cc(S(=O)(=O)N2CCCCC2)ccc1Cl	-10%
Cc1ccc(-n2nc(C)c(/C=N/NC(=O)c3cccnc3)c2Cl)cc1	-7%
O=C(COC(=O)C1(c2ccc(Cl)cc2)CCCC1)Nc1ncc(C(F)(F)F)cc1Cl	-14%
CCn1c(SCc2cccc(C(F)(F)F)c2)nnc1-c1ccco1	-21%
CCC(C)NC(=O)c1cc(-c2ccccc2O)on1 (centres undefined)	-21%
Cc1nc(Cl)sc1C(=O)O	?
CCS(=O)(=O)N1CCC(C(=O)NCc2cccnc2)CC1	2%
CC(=O)c1cccc(S(=O)(=O)N(Cc2cc3cc4c(cc3[nH]c2=O)OCCO4)CC2CCCO2)c1 (centres undefined)	-14%
CCOC(=O)N1CC=C2C(C#N)=C(N)C(C#N)(C#N)[C@H](c3ccc(OCC)c(OCC)c3)[C@H]2C1	-3%
Cc1cc(Oc2ccccc2)nc(SCC(N)=O)n1	-9%
COC(=O)c1ccc2c(c1)N(Cc1ccccc1F)C(=O)c1ccccc1S2=O (centres undefined)	-12%
CCCC(=O)N1c2ccccc2C(=C2SC(C(=O)OC)=C(C(=O)OC)S2)C(=S)C1(C)C	?
O=C(O)c1cc(-c2cccnc2)nn1-c1ccccn1	-2%
Cc1nc2cc(NC(=O)CCS(=O)(=O)c3ccccc3)ccc2s1	4%
CCc1ccc(N2CC(C(=O)NC3=NCCS3)CC2=O)cc1 (centres undefined)	-10%
O=C(NNc1ccc([N+](=O)[O-])cc1)C1CC1c1ccccc1 (centres undefined)	25µM*
COc1ccc(S(=O)(=O)Nc2cccc(S(=O)(=O)N3CCCCCC3)c2)cc1	-5%
Cc1cccc(OCc2nnc(SCC(=O)N(C(C)C)C(C)C)n2Cc2ccco2)c1C	-5%
CCOC(=O)c1sc(NC(=O)CSc2nnnn2-c2ccc(C)c(C)c2)nc1C	-6%
The results go on.
SMILES	HPGD block
Cn1c(SCC(=O)c2ccc(F)cc2)nnc1-c1ccccc1N	-14%
CCOC(=O)Nc1ccc2c(CN3CCN(S(=O)(=O)c4ccccc4)CC3)cc(=O)oc2c1	?
CCOCCCNC(=O)C1CCN(c2cc(C)nc3c(-c4ccc(OC)c(OC)c4)c(C)nn23)CC1	-19%
CCCNC(=O)CSc1nnc(-c2ccco2)n1C	-1%
Clc1ncnc2c1oc1ccccc12	-14%
CCCS(=O)(=O)N1CCCC(C(=O)N2CCOCC2)C1 (centres undefined)	-3%
COc1ccc(C(=O)N/C(=C\c2cn(C)c3ccccc23)C(=O)OCC(C)C)cc1	-16%
CCOC(=O)C1(C/C(C)=N/NC(N)=O)CC(C)OC1=O (centres undefined)	-4%
O=C1CC(N2CCN(C3CC(=O)N(CCc4ccccc4)C3=O)CC2)C(=O)N1CCc1ccccc1 (centres undefined)	-4%
Cn1cnnc1SCC(=O)NCCC(c1ccccc1)c1ccccc1	-2%
CCOc1ccc2[nH]c(S(=O)(=O)CC)nc2c1Cl	-14%
O=c1ccc(Oc2nc(N3CCOCC3)nc(N3CCOCC3)n2)n[nH]1	-2%
CC(=O)c1c(N)[nH]c(-c2ccccc2)nc1=S	-9%
COC(=O)c1sc(NC(=O)CSc2nnnn2-c2cccc(OC)c2)nc1C	-15%
Clc1ccc(OCCSCc2nc3ccccc3[nH]2)cc1	?
CCOC(=O)c1sc(NC(=O)CCCCCN2C(=O)c3cccc4cccc(c34)C2=O)nc1C	-16%
COC(=O)CCC(=O)OC1(C)C(=O)C=C2C=C3CCCN3C=C2C1=O (centres undefined)	-8%
Cc1cccc(NC(=S)NCCO)c1C	-7%
Nc1ncnc2c1ncn2C1OC(COP(=O)(O)O)C(O)C1O (centres undefined)	-3%
Cc1sc(NC(=O)C2CCCCC2)c(C#N)c1-c1ccccc1	-19%
COc1cc(C(=O)Nc2nc3ccc4nc(C)sc4c3s2)cc(OC)c1OC	?
CCN(CC)CCn1c2ccc(F)cc2c2nc(C)sc21	-3%
CCN1C(=O)CC(N2CCC(Nc3ccc(OC)cc3)CC2)C1=O (centres undefined)	-2%
O=C(COC(=O)C1(c2ccc(F)cc2)CCCC1)N1CCN(C(=O)c2ccco2)CC1	-2%
COc1ccc(C(=O)N2CCC3(CC2)CN(c2ccccn2)C3)cc1	?
Cc1cccc(NC(=O)C2CC(=O)NC(Nc3nc4ccccc4s3)=N2)c1 (centres undefined)	-5%
COCCNC(=O)CSc1nc2ccccc2c(=O)n1CC1CCCO1 (centres undefined)	-3%
O=C(NCc1ccccc1)c1ccc(-c2ccc(F)cc2)o1	?
Cc1c(C)c2c(c(C)c1O)CCC(C)(COc1ccc(Cc3sc(=O)[nH]c3O)cc1)O2 (centres undefined)	-8%

Gathered by group, those above with two or more sulfur atoms.
SMILES	HPGD block
CS(=O)(=O)N(CC(=O)NCCSC1CCCCC1)c1ccc2c(c1)OCO2	-9%
CC(=O)Nc1c(O)nc(SCC(=O)Nc2sc3c(c2C#N)CCCCCC3)[nH]c1=O	?
CCN(CC)S(=O)(=O)c1ccc(C(=O)Oc2coc(CSc3nc(C)cc(C)n3)cc2=O)cc1	-9%
CCCCn1c(-c2csc3c2CCC(C)C3)n[nH]c1=S (centres undefined)	14µM*
Cn1c(SCC(=O)Nc2cccc(O)c2)nnc1-c1ccc(S(=O)(=O)N2CCOCC2)cc1	4%
CSc1ncccc1C(=O)Nc1nc2c(C)cccc2s1	-14%
CCOC(=O)CSc1nnc(CSc2nc3sc4c(c3c(=O)[nH]2)CCC4)n1C	8.9µM*
Cc1noc(C)c1CSc1ncnc2sc3c(c12)CCCCC3	?
O=C(Nc1nccs1)c1cc(S(=O)(=O)N2CCCCC2)ccc1Cl	-10%
CCCC(=O)N1c2ccccc2C(=C2SC(C(=O)OC)=C(C(=O)OC)S2)C(=S)C1(C)C	?
Cc1nc2cc(NC(=O)CCS(=O)(=O)c3ccccc3)ccc2s1	4%
COc1ccc(S(=O)(=O)Nc2cccc(S(=O)(=O)N3CCCCCC3)c2)cc1	-5%
CCOC(=O)c1sc(NC(=O)CSc2nnnn2-c2ccc(C)c(C)c2)nc1C	-6%
COC(=O)c1sc(NC(=O)CSc2nnnn2-c2cccc(OC)c2)nc1C	-15%
COc1cc(C(=O)Nc2nc3ccc4nc(C)sc4c3s2)cc(OC)c1OC	?
